Compound activity from PubChem.
Bfl-1 A1 inh – inhibitors of the anti-apoptotic protein A1, read as caspase activation. MEF A1-2A-BIM cells, Caspase-Glo 3/7 luminescence, 3 h; percent of clofoctol response, vehicle zero. caspase activation, % (concentration not given with the values). hit rate 0.066% among 330,000;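 active means over half of replicate activation scores above 10%, or exactly half above 10 with the replicate mean above 10; inconclusive means replicate mean below 10 yet half the replicates above 10; inactive means over half of replicates below 10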;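 further: wells of about 30 µL received 50 nL stock; many hits fall short of the cut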
Calb FLC – affects C. albicans growth with fluconazole; hit rate 0.57% among 300,000; growth inhibition, % (test concentration not listed); C. albicans CaCi-2 (fluconazole-resistant clinical isolate) + fluconazole, Alamar Blue growth, 48 h;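 active means most replicates above 75%; inconclusive means exactly half above 75%; inactive means most below 75%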;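 further: all wells also contain fluconazole at 8 µg/ml as a sub-toxic cotreatment; 0% = median of DMSO wells and 100% = median of geldanamycin control wells; wells of about 8 µL received 7.5 nL stock; the first replicate is given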
MLL AF4-AF9 inh – blocks AF4 peptide binding to human AF9 | inhibition, % at 10 µM | AID 651704 | P42568 | hit rate 0.47% among 350,000 | AlphaScreen, biotin-AF4 peptide binding to FLAG-AF9;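 active means every replicate reaching a set inhibition limit, whatever the replicate mean, cut at about 25% in these data; inconclusive means mean inhibition reaches that limit but some replicates miss it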;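 further: 0% = plate neutral control median and 100% = total signal loss; the record names both 10 and 1 µM as test concentration; the first replicate is given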
Target sequence (P42568 whole entry, looked up): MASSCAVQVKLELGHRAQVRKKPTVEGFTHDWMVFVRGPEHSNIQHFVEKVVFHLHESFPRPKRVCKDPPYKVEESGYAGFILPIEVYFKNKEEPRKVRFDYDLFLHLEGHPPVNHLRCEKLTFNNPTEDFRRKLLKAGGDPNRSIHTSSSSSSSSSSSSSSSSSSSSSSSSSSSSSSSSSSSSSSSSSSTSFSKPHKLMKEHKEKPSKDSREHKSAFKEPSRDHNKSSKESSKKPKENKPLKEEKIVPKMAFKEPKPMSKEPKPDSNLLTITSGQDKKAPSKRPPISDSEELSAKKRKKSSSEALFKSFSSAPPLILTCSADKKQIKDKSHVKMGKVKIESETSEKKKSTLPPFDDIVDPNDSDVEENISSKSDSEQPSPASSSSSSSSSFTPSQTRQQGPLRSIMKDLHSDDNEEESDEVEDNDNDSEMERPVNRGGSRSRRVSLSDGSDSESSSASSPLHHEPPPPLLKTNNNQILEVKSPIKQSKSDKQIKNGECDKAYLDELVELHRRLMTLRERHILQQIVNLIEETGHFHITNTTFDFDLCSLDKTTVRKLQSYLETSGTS
RanGTP-Imp inh – inhibitors of RanGTP-importin-beta interaction, primary screen, biochemical, FRET, CFP-Ran, YFP-importin-beta, homogeneous. cell-free CFP-Ran/YFP-importin-beta FRET ratio. inhibition, % (no concentration beside the values). hit rate 1.1% among 300,000;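 active means most replicates above 15%; inconclusive means exactly half above 15%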;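 further: 0% = DMSO wells and 100% = Ran loaded with GDP instead of GTP; wells of about 40 µL received 100 nL stock; the first replicate is given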
Beta cell apopt – blocks beta cell apoptosis; INS-1E cytokine-induced death, ATP luminescence, 48 h; percent of positive-control rescue, neutral wells zero; AID 435005; hit rate 0.8% among 300,000; protection from apoptosis, % (test concentration not listed);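 active means all replicates at 75% or more, or half of them and the mean; inconclusive means half reach 75% but not the mean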;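 further: 0% = cytokine-treated negative control wells and 100% = positive control rescue; higher means more ATP so stronger rescue from cytokine killing; wells of about 40 µL received 100 nL stock; the first replicate is given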
Vif A3G – inhibitors of Vif binding to APOBEC3G peptide, primary screen, biochemical, TR-FRET, GST-Vif 1-94, biotin-A3G peptide, dose response retest (AID 1117319); hit rate 0.57% among 260,000; inhibition, %, or IC50 in µM where a hit was titrated; TR-FRET GST-Vif / biotin-A3G peptide binding; higher % means a stronger effect; test concentration not given here; strong numbers were not always called active;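 active means above the screen mean plus three standard deviations and confirmed in dose response; inconclusive means results disagree or hit not tested in dose response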;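 further: Vif residues 1-94 fused to GST binding biotinylated APOBEC3G peptide 110-148; 0% = full assay without inhibitor and 100% = GST in place of GST-Vif; retest series ran down from 100 µM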
T cruzi repl – blocks replication of Trypanosoma cruzi; inhibition, % (no concentration beside the values); AID 1885; T. cruzi beta-gal in NIH3T3, luminescence, 90 h; hit rate 1.4% among 300,000;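 active means mean inhibition across valid replicates above about 55%, limit read from the data; inconclusive means mean below that limit but half or more replicates reach it; inactive means mean below it, under half of replicates reach it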;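 further: signal also drops with host cell toxicity which is not excluded here; 0% = plate median of DMSO wells and 100% = zero luminescence signal; higher percent means less beta-gal luminescence so fewer parasites; stock transfer was 50 nL into about 50 µL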
Ecoli rRNA inh – selective bacterial rRNA inhibition in E. coli. E. coli WT GFP vs humanized-ribosome RFP mutants, fluorescence, 24 h; active compounds read low; DMSO median 0, no signal -100. GFP signal change (wild-type ribosome), % (no concentration beside the values). hit rate 1.6% among 350,000;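 active means significant combined selectivity score with lowered wild-type GFP, culture density cut under 30%, mutant RFP and density less affected; inactive means any of these conditions unmet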; further: one replicate is shown; some compounds called inactive have numbers as strong as hits
Ecoli rRNA inh OD600 – second read-out of Ecoli rRNA inh, no call of its own (marks repeat the call); OD600 change, %; measured here: OD600 growth;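 optical density of the mix in the first replicate; 0 = DMSO median and -100 = no signal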
Ecoli rRNA inh RFP – recorded beside Ecoli rRNA inh, whose call it bears; RFP signal change, %; measured here: RFP humanized mutant strains;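 first replicate; 0 = DMSO median and -100 = no signal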
* marks the source's active call; other numbers are inactive results; u = inconclusive; x = no result given. An excerpt (hit frequency here may not be typical).

SMILES | Bfl-1 A1 inh | Calb FLC | MLL AF4-AF9 inh | RanGTP-Imp inh | Beta cell apopt | Vif A3G | T cruzi repl | Ecoli rRNA inh | Ecoli rRNA inh OD600 | Ecoli rRNA inh RFP
COc1ccc(-n2c(C)cc(/C=C3\C(=N)N4N=C(CC(=O)N5CCOCC5)SC4=NC3=O)c2C)c(OC)c1 | 0.1 | 11 | 1.7 | 4.4 | 1 | x | 9 | 9 | -17 | 10
COCc1nnc(NC(=O)C2CCN(C(=O)c3ccco3)CC2)s1 | -0.3 | 3 | 0.0 | 3.7 | -1 | -8% | -17 | 4 | 9 | -2.1
COc1cc(OC)cc(OCC(O)Cn2ccnc2C)c1 (stereo unspecified) | -0.7 | 12 | x | 3.4 | -3 | 7% | -9 | x | x | x
CC(=O)c1c(O)cc(=O)oc1-c1ccc(C)cc1 | 0.7 | 2 | -0.6 | -3.8 | x | x | 8 | 4 | 6 | -2.2
CSc1ccc(C(=O)C2CCCN(C(=O)c3cccnc3SC)C2)cc1 (stereo unspecified) | 0.2 | 4 | -15 | 0.7 | 7 | x | -11 | -9 | -4 | -1.5
CSCCC(NC(=O)COc1ccccc1)C(=O)N1CCN(c2ccccc2O)CC1 (stereo unspecified) | -0.7 | -5 | -12 | x | -5 | x | 0 | -6 | -11 | -1.5
COC(=O)CSc1nc(C)cc(C(F)(F)F)c1C#N | 0.2 | 0 | x | 3.0 | 0 | 33% | 1 | x | x | x
Nc1c(C(=O)NCc2ccc3c(c2)OCO3)c2nc3ccccc3nc2n1CCCN1CCOCC1 | 0.6 | 0 | x | 61* | -8 | 15% | 18 | x | x | x
Cn1c(=NC(=O)c2cnccn2)sc2ccccc21 | -1.8 | -7 | x | -1.0 | 10 | 3% | 7 | x | x | x
O=C(CSc1nnc2ccccn12)NCc1ccc2c(c1)OCO2 | -2.2 | 8 | -2.9 | -3.8 | -6 | -12% | 0 | 12 | 13 | -2.4
NC(=O)CCC(NS(=O)(=O)c1ccc(Cl)cc1)C(=O)NCc1ccccc1Cl (stereo unspecified) | 0.4 | -1 | x | -4.3 | -6 | 21% | 9 | x | x | x
O=C(OCc1c(Cl)nc2sccn12)c1cc2c(s1)CCCC2 | 0.9 | -6 | x | 0.0 | -3 | 2% | 3 | -3 | 2 | -6.8
CCOC(=O)N1CCN(C(=O)CCn2c(=S)[nH]c3cc(OCC)c(OCC)cc3c2=O)CC1 | 0.8 | 0 | x | u | -4 | 9% | -18 | x | x | x
COc1ccc(CCN2C(=S)N(c3ccc(Cl)cc3)C(=O)C2CC(N)=O)cc1OC (stereo unspecified) | 0.2 | 4 | x | 4.3 | 43 | 0% | 4 | 6 | -1 | 2.7
COCCn1c(SCC(=O)Nc2ccc(OC)cc2)nnc1-c1ccoc1C | 0.6 | 7 | 0.4 | 0.2 | -1 | x | 2 | 2 | 4 | -4.7
O=C(N/N=C/c1ccc(Cl)s1)C(O)c1ccccc1 (stereo unspecified) | 0.3 | -27 | -3.3 | 2.2 | x | x | 1 | 10 | -11 | 4.2
N#C/C(=C\c1ccc(OC(=O)c2ccccn2)cc1)C(N)=O | -1.2 | -13 | x | 1.1 | -1 | x | -3 | x | x | x
Cc1ccc(-c2nn(-c3ccccc3)cc2C(=O)NCC(c2cccs2)N2CCOCC2)cc1 (stereo unspecified) | 0.2 | 3 | -6.7 | 2.7 | x | 0% | 18 | 6 | 2 | -0.8
CCOc1ccc(N2CC(C(=O)Nc3nnc(C4CCCCC4)s3)CC2=O)cc1 (stereo unspecified) | 0.0 | 0 | -1.6 | 0.6 | -4 | x | 1 | 5 | 7 | -1.3
O=C(Cc1cccc(C(F)(F)F)c1)OCN1C(=O)c2ccccc2C1=O | 0.6 | 5 | 0.1 | -1.6 | 0 | x | 15 | 3 | 2 | -1.0
COc1ccc(/C=C/C2=CC(C)(C)NC(=S)N2)cc1OC | -2.4 | 0 | -6.2 | -2.9 | 1 | 6% | -7 | 4 | -6 | 0.6
C=CCNC(=O)/C(=C/c1ccccc1OCC)NC(=O)c1ccccc1 | -0.1 | 24 | 2.1 | -0.9 | -2 | -11% | -3 | 1 | -1 | -2.8
COc1c(Cl)ccc(Cl)c1C(=O)NC(=O)N1CCOCC1 | 0.4 | u | x | -1.9 | -4 | -4% | 0 | x | x | x
CCCn1c(=O)c(C(=O)NNC(=O)c2ccc(Cl)cc2Cl)c(O)c2ccccc21 | 0.2 | x | -0.6 | 1.6 | -3 | x | 0 | 4 | 15 | -2.0
CC1(C)CC(NC(=O)C(=O)NCCc2ccccc2)CC(C)(C)N1 | 0.8 | 7 | -5.9 | -3.2 | -1 | u | 2 | 3 | -14 | -0.9
O=C(Nc1cccnc1)c1cc(-c2cccs2)on1 | 0.4 | -26 | x | 1.1 | -4 | 21% | 1 | x | x | x
CCOC(=O)N1N=C(C)CC1(O)c1ccc(Cl)cc1 (stereo unspecified) | 1.9 | -2 | 0.1 | 3.7 | -4 | -4% | -7 | 14 | 12 | 3.9
CCCNC(=O)C(Cc1ccccc1)NC(=O)c1ccccc1 (stereo unspecified) | -0.3 | x | -13 | x | -9 | x | x | 3 | 4 | -2.8
CCOC(=O)c1nnc(-c2ccc(C)cc2)nc1Sc1ccc(Cl)cc1 | 0.4 | -12 | x | -1.7 | -5 | 1% | -16 | x | x | x
COCCNC(=O)C1CCC(=O)N(c2ccc(OC)cc2)C1c1ccc(OC)c(OC)c1 (stereo unspecified) | 0.0 | 13 | x | -1.3 | -2 | 4% | -6 | x | x | x
Cc1ccc(CNC(=O)c2ccccc2-n2cnnn2)cc1 | -0.2 | 14 | -9.4 | -0.5 | 1 | 15% | -22 | 12 | 5 | 3.4
O=C(CN(c1ccccc1)S(=O)(=O)c1ccccc1[N+](=O)[O-])Nc1cccnc1 | -0.2 | -8 | 0.1 | -1.0 | 3 | x | -1 | -9 | -6 | 2.3
Cc1cc(=O)[nH]c(N/N=C/c2c(C)nn(-c3ccccc3)c2Cl)n1 | -1.0 | 17 | -6.2 | 3.4 | 7 | x | -24 | 4 | 0 | -3.7
COc1ccc(C(=O)[C@@H]2CC[C@](C)(C(=O)O)C2(C)C)cc1 | -1.0 | -5 | -8.3 | 0.5 | -1 | x | -1 | 1 | 0 | -8.2
COc1ccc(S(=O)(=O)NCCSCc2ccco2)cc1OC | -0.3 | -6 | -43 | -2.7 | -4 | 12% | -1 | 9 | 2 | 3.3
Cc1ccc(N(CC(=O)Nc2cc(Cl)ccc2Oc2ccccc2)S(C)(=O)=O)cc1C | 0.7 | -4 | x | 4.0 | -2 | 1% | 45 | x | x | x
COc1ccc(/C=N\NC(=O)C2COc3ccccc3O2)cc1O (stereo unspecified) | -0.5 | 10 | -41 | 1.9 | 1 | 11% | -11 | 2 | -5 | -1.6
CCOc1ccc(N(C(C)C(=O)N/N=C(\C)C(C)(C)C)S(C)(=O)=O)cc1 (stereo unspecified) | 0.3 | -3 | x | u | -20 | 3% | -39 | x | x | x
O=C(NC(=S)Nc1ccc(Br)c(Cl)c1)C1CC1 | -0.8 | 36 | -0.9 | 2.2 | -6 | x | 5 | -27* | 0.6* | -3.4*
Cc1nc([N+](=O)[O-])cn1CC(=O)c1ccccc1 | 0.6 | -5 | -37 | -4.1 | -2 | -8% | -2 | 9 | 4 | 9.9
CC1Cc2ccccc2N1C(=O)CN(C)S(=O)(=O)c1cccc2cccnc12 (stereo unspecified) | 0.6 | 2 | 3.6 | 4.0 | 2 | 0% | -15 | -9 | -2 | 5.4
CC(NC(=O)CSc1nc2ccccc2n1C)c1ccccc1 (stereo unspecified) | 1.0 | -2 | -4.7 | -1.9 | -3 | x | 4 | 3 | 2 | 0.1
CN1CCN(C(=O)C2=C[C@H](C3CC3)C[C@H](OCc3ccc(CO)cc3)O2)CC1 | 0.3 | -1 | x | 1.3 | -8 | x | 2 | x | x | x
COc1ccc(/C(O)=C2/C(=O)C(=O)N(CCN(C)C)C2c2cccnc2)cc1C (stereo unspecified) | 0.2 | -8 | -3.5 | 3.8 | 0 | -4% | -1 | 5 | -3 | 1.5
O=C(NNc1nc(-c2ccccc2)c2cc(Br)ccc2n1)c1ccc(S(=O)(=O)N2CCOCC2)cc1 | -0.8 | 11 | -16 | -4.1 | 10 | -4% | 33 | 14 | 3 | -0.2
CCN1C(=O)N(CC)c2cccc3cccc1c23 | -0.9 | 12 | 5.6 | -0.4 | -4 | x | u | -29 | -32 | -0.5
CCOc1ccc2nc(SCC(=O)Nc3cc(C)on3)c(C)cc2c1 | 0.1 | 1 | -2.5 | 4.2 | 7 | x | 15 | -1 | 8 | -2.8
Cc1ncc(CO)c(/C=N/NC(=O)c2cc(Br)ccc2O)c1O | 0.1 | u | 28* | 1.9 | -6 | 11% | -11 | -51 | -68 | -15
CCOP(=O)(OCC)C(NC(=O)Nc1c(C)cc(C)cc1C)c1ccccc1 (stereo unspecified) | 0.4 | 1 | -1.1 | 1.5 | 0 | -4% | -11 | 12 | 5 | 0.8
O=C(Cn1nc(-c2ccccc2)c2ccccc2c1=O)NCCO | -0.7 | 11 | -22 | -1.1 | -2 | -2% | -12 | 10 | 15 | -2.6
Cc1n[nH]c(=S)n1-c1cccc(Cl)c1 | -2.5 | -5 | 5.4 | 2.7 | -3 | x | -11 | 6 | 15 | -2.1
O=C(Nc1cccc(Cl)c1)c1ccc(-n2cncn2)c([N+](=O)[O-])c1 | -1.4 | 8 | x | 1.0 | -8 | 2% | 3 | x | x | x
CCN(c1ccccc1)S(=O)(=O)c1ccc2[nH]cc(C(=O)NCCOC)c(=O)c2c1 | 0.3 | 14 | x | 5.9 | -2 | u | -3 | x | x | x
CCOC(=O)CSc1nc2sc(C)c(C)c2c(=O)[nH]1 | -0.4 | -2 | x | 6.8 | 1 | 24% | 1 | x | x | x
O=C(OCC(=O)N1CCOCC1)c1ccc[nH]c1=O | 0.0 | -4 | x | -1.7 | 3 | 2% | -18 | x | x | x
COc1ccc(C(=O)c2c[nH]cc2-c2ccccc2)cc1 | -0.4 | -12 | 3.5 | 3.6 | x | -2% | -17 | x | x | x
Cc1ccc(S(=O)(=O)Cc2nc3ccccc3c(=O)[nH]2)cc1 | 0.8 | -1 | x | 0.4 | -4 | 1% | -1 | x | x | x
Cc1ccc(/C=C/C(=O)c2ccccc(=O)c2O)cc1C | 2.5 | 99* | u | -3.7 | 23 | 31% | 59* | 4 | -1 | -3.0
CCOC(=O)c1cc(=O)n2nc(-c3ccccc3F)nc2s1 | -0.4 | 3 | x | -1.2 | -6 | 1% | -6 | x | x | x
